TRPML1 inh: inhibitors of human TRPML1 channel; Q9GZU1; 390,000 compounds, 0.02% hits; activity change, negative = inhibition, % (concentration not given with the values); TRPML1-inducible cells, Ca2+ dye fluorescence, FDSS; active compounds read low; inhibition of EC80 agonist-evoked calcium signal; in the data active means activity change below about -50%; inconclusive means about -30% to -50%; inactive means above about -30%;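 note: stimulus is agonist 54-4 at its EC80 concentration; % is set by controls: 0 for no effect and ±100 for the full control effect; the text of the record puts the active cut at -80%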
Target sequence (Q9GZU1 whole entry, looked up): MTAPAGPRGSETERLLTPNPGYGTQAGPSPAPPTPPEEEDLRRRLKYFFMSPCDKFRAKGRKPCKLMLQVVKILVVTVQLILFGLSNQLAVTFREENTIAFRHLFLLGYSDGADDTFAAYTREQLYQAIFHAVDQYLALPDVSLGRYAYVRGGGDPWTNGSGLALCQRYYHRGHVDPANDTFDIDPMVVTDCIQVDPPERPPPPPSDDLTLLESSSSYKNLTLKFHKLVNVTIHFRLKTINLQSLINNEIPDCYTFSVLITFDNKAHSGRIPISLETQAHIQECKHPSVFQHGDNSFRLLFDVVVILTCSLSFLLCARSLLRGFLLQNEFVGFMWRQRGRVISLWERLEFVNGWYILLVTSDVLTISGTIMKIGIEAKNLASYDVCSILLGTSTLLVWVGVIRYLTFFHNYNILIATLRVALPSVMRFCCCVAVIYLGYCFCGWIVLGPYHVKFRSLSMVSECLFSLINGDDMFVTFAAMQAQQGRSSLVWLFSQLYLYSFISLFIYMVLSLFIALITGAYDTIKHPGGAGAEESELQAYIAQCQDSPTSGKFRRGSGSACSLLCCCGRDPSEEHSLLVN
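TRPML1-DL cells, Tet-induced overnight (~16 h, 37 °C) at 1,500 cells/well, were loaded with Ca8 no-wash dye plus quencher for 45-90 min at room temperature. Compounds were pinned during FDSS kinetic reading; agonist 54-4 at EC80 (4 uM final) then added.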
TRPML1 agonist: activates the human TRPML1 channel. Q9GZU1. TRPML1-expressing cells, Ca2+ dye fluorescence, FDSS; host cell line not named in the record; reference of the full effect not given here. activation, % (no concentration beside the values). 410,000 compounds, 0.12% hits. AID 624414; in the data active = activation above about 50%; inconclusive = about 30% to 50%; inactive = below about 30%; note: 0% is about no effect; the text of the record puts the active cut at 80%
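Kinetic FDSS Ca2+ read in Tet-induced TRPML1-DL cells (ABD Ca8 dye plus quencher, 45-90 min RT loading): baseline, then compound, then 110 s agonist window; EC80 agonist 54-4 at 4uM final added afterwards for a 110 s antagonist window.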
ClpP mod: qHTS Assay for Activators of ClpP. purified B. subtilis ClpP, FRET peptide cleavage, 20 min. Potency, µM (highest dose often 57.5 µM), for inactives: at the highest dose activity change, negative = active. 340,000 compounds, 1.9% hits; active = well fitted falling curve with a large enough effect; inconclusive = small, poorly fitted or top-dose-only effect; inactive = no such curve, though single readings can be large or run the other way; note: potency is the fitted concentration of half-maximal effect; the source files actives as falling curves though it sought activators and does not explain the sign; nearly all actives have a fitted effect of over 65% in size; many hits overshoot -100%
Target sequence (P80244 whole entry, looked up): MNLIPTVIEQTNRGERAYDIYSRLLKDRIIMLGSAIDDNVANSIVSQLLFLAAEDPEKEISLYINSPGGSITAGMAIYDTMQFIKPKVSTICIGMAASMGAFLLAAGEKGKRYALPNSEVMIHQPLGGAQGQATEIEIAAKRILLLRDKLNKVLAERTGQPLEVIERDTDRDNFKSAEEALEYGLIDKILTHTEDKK
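Buffer: 100 mM Tris/HCl pH8, 100 mM KCl, 0.05% low protease BSA, 2.5% glycerol, 0.01% Tween-20. ClpP 10 microg/mL final; 20 min RT; delta FRET normalized to ADEP and DMSO controls.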
gsp ag: agonists of gsp mutant (McCune-Albright syndrome); gsp mutant cells, cAMP HTRF, 30 min; control for the full effect not named in the record; Potency, µM (doses to about 76.9 µM), without a hit: top-dose activation (cAMP increase), actives largely listed as activators; 340,000 compounds, 0.13% hits; AID 624287; active = well fitted activation curve with a large enough effect; inconclusive = small, poorly fitted or top-dose-only effect, or another doubt; inactive = no such curve, though single readings can be large or run the other way; cell line not stated here;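 note: phosphodiesterase inhibitor Ro 20-1724 added with compounds to block cAMP breakdown; potency is the fitted concentration of half-maximal effect; nearly all actives have a fitted effect of over 60% in size; about a fifth of the inactives were tested at one dose only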
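Cells stably selected in G418 were plated at 2000/well, grown 16-24 hr, then given compounds in DMSO with the PDE inhibitor […] (300 uM solution added) for 30 min at 37C; cAMP was read by HTRF.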
gsp antag: antagonists of gsp mutant (McCune-Albright syndrome); gsp-mutant cells, cAMP HTRF, 30 min; control for the full effect not named in the record; Potency, µM (series often up to 76.9 µM), inactives show at the highest dose activity change, negative = inhibition, most hits filed as inhibitors; 340,000 compounds, 0.4% hits; active = falling curve of any shape with a large fitted effect; inconclusive = falling curve, mostly with a smaller effect; inactive = flat or rising curve; cell line not stated here;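 note: intracellular cAMP measured with PDE inhibitor Ro 20-1724 present during compound exposure; potency is the fitted concentration of half-maximal effect; % is set by controls: 0 for no effect and ±100 for the full control effect; nearly all actives have a fitted effect of over 65% in size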
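HTRF cAMP read-out (cAMP-d2 plus anti-cAMP antibody-K in lysis buffer, 30 min RT). Before lysis, cells are exposed to compounds with […] for 30 min at 37C in DPBS containing Ca/Mg, BSA and Tween 20.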
Menin MLL FP FL: menin-MLL binding inhibition, fluorescein peptide; Fluorescence polarization, fluorescein-MLL peptide displacement from menin; FP activity change, % at 61.4 µM; 290,000 tested, under 10 active; inconclusive = falling polarisation curve, or a change in total fluorescence; inactive = total fluorescence flat and polarisation flat or rising; no compound was filed as active; the % refers to the polarisation; negative = inhibition;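 note: % of control where 0% means no effect; inhibitors lower the polarisation; unlabelled MLL peptide was the positive control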
An asterisk follows results filed as active; ? = inconclusive; / = not tested or not shown; & = joins results of further samples; [ ] = dose if it differs, or a comment.

item	smiles	TRPML1 inh	TRPML1 agonist	ClpP mod
1	O=S(=O)(/N=C(/Nc1ccc(Cl)c(S(=O)(=O)Nc2ccccc2Cl)c1)c1ccc(F)cc1)c1ccccc1	1.2&-0.4	2.0&1.6	/
2	COc1cccc(N2CCN(C(=S)Nc3ccccc3OC)CC2)c1	15.0	0.1	-1.9%
3	Cc1ccc(C)c(N(C(=O)c2nsc(Cl)c2Cl)C(C(=O)NC2CCCC2)c2ccc(O)cc2)c1 (centres undefined)	-13.4	1.2	-0.1%
4	O=[N+]([O-])c1cc(C(F)(F)F)ccc1N1CCCC(O)C1 (centres undefined)	3.8	0.3	/
5	O=S(=O)(c1ccc(OCC(O)CNCc2ccco2)c(Cl)c1)N1CCOCC1 (centres undefined)	9.0	0.6	0.7%
6	O=C(CC1CCCC1)NCCS(=O)(=O)N1CCN(c2ccccc2)CC1	-3.3	-0.6	-1.5%
7	O=C(Nc1ccc2c(c1)N(S(=O)(=O)c1cccs1)CCC2)c1c(F)cccc1F	38.9	1.0	11.2µM*
8	Cc1cccc(C)c1NC(=O)NC1(C(=O)NCCN2CCOCC2)CCCCC1	-6.5	-0.2	0.3%

item	gsp ag	gsp antag	Menin MLL FP FL
1	9.0%	?	-2.9
2	-4.0%[15.4 µM]	-11.7%	2.2
3	0.1%[15.4 µM]	?	4.6
4	-11.0%[15.4 µM]	5.4%	-1.6
5	-9.6%	8.6%	?
6	-33.8%	/	/
7	-39.0%[inhibitor]	-3.5%	/
8	5.5%[15.4 µM]	4.5%	1.1

Shown with values under each structure: entries from further up
Values run as follows: TRPML1 inh	TRPML1 agonist	ClpP mod	gsp ag	gsp antag	Menin MLL FP FL
[3] Cc1ccc(C)c(N(C(=O)c2nsc(Cl)c2Cl)C(C(=O)NC2CCCC2)c2ccc(O)cc2)c1 (centres undefined)
→ -13.4	1.2	-0.1%	0.1%[15.4 µM]	?	4.6
[6] O=C(CC1CCCC1)NCCS(=O)(=O)N1CCN(c2ccccc2)CC1
→ -3.3	-0.6	-1.5%	-33.8%	/	/
[5] O=S(=O)(c1ccc(OCC(O)CNCc2ccco2)c(Cl)c1)N1CCOCC1 (centres undefined)
→ 9.0	0.6	0.7%	-9.6%	8.6%	?

More compounds follow.
item	smiles	TRPML1 inh	TRPML1 agonist	ClpP mod
9	CC(Sc1n[nH]c(=O)[nH]c1=O)C(=O)OCc1ccccc1 (centres undefined)	10.7	0.9	-0.4%
10	CCc1nc(SCC(=O)Nc2ccc(N(C)C)cc2)c2ccccc2n1	10.3	-0.2	1.5%
11	CN1C(C(=O)c2ccccc2)=C(NC(=O)c2ccc(F)cc2)c2ccccc2S1(=O)=O	24.4	0.9	-3.7%
12	CCC(C)(C)NC(=O)C1CCN(S(=O)(=O)c2cccs2)CC1	15.1	-0.9	/
13	CCO[C@H]1OC(C(=O)N2CCCCCCC2)=C[C@@H](C2CCCCC2)[C@@H]1CCCO	-7.4	0.3	0.1%
14	CSCC(=O)Nc1ccc(F)c(Cl)c1	-21.9	0.5	-0.4%
15	O=C(Cn1c(=O)nc(-c2ccccc2)c2cc(Cl)ccc21)N1CCN(c2ccc(F)cc2)CC1	-7.3	0.5	-2.7%
16	Cc1ccnc(NC(=O)c2ccc(S(=O)(=O)N3CCCC3)cc2)c1	-1.8	-0.2	-3.4%

item	gsp ag	gsp antag	Menin MLL FP FL
9	-12.2%	-12.0%	0.0
10	-7.9%	4.8%	1.0
11	/	/	/
12	21.0%[15.4 µM]	7.4%	0.2
13	/	-8.7%	1.7
14	10.7%[15.4 µM]	-8.8%	0.4
15	/	/	/
16	-12.5%	0.2%	/

Later entries:
item	smiles	TRPML1 inh	TRPML1 agonist	ClpP mod
17	C=CCn1cc(C(=O)N2CCN(CC)CC2)c(=O)c2cc(S(=O)(=O)N(CC)CC)ccc21	1.8	0.9	/
18	CCOc1ccc(N(C(=O)c2ccc(C)cc2)S(=O)(=O)c2ccc3c(c2)n(C)c(=O)n3C)cc1	-2.4	3.2	-1.8%
19	CCN(C[C@H]1N[C@@](C)(C(=O)OC)[C@H]2C(=O)N(Cc3ccccc3)C(=O)[C@@H]12)C(=O)NC(C)C	-3.5	-1.0	-1.1%
20	OCC[C@H]1C[C@H](O)[C@@H](O)[C@]2(CCc3ccccc3O2)O1	4.2	-0.7	2.6%
21	Cc1csc2ncc(C(=O)NCc3ccccc3Cl)c(=O)n12	-9.6	-0.7	3.6%
22	O=C1C2(CCCC13COC(c1ccc(O)cc1)OC3)COC(c1ccc(O)cc1)OC2 (centres undefined)	8.0	-0.5	-0.4%
23	O=C(Nc1ccc2c(c1)OCCO2)c1ccccc1Cl	15.0	0.1	1.5%
24	COc1ccc(CNC(=S)Nc2cccc(Cl)c2)cc1	13.4	0.2	0.7%

item	gsp ag	gsp antag	Menin MLL FP FL
17	31.1%	-5.3%	-1.2
18	/	/	/
19	/	10.2%	/
20	/	11.6%	/
21	?	2.8%	-0.7
22	?	14.8%	-0.3
23	-12.5%	/	/
24	-28.7%	-17.5%	/

Continuation.
item	smiles	TRPML1 inh	TRPML1 agonist	ClpP mod
25	O=C(Nc1cc(Cl)ccc1F)c1ccc(-n2cncn2)c([N+](=O)[O-])c1	-16.1	0.0	/
26	CCOC(=O)N1CCC(NC(=O)CC2C(=O)NCCN2Cc2ccccc2F)CC1 (centres undefined)	?	0.3	-3.2%
27	Cc1ccc(NC(=O)c2cc(S(=O)(=O)N3CCCCC3)ccc2N2CCOCC2)c(C)c1	4.2	-0.9	0.0%
28	O=C(c1ccc(CS(=O)(=O)c2ccc(Br)cc2)o1)N1CCCCCC1	1.9	-0.8	-1.9%
29	O=C(CSCSCC(=O)Nc1ccc2c(c1)OCO2)Nc1ccc2c(c1)OCO2	2.8	-0.5	0.0%
30	CCOC(=O)C1=CC[C@@H](c2ccc(F)cc2)N(S(=O)(=O)c2ccc(C)cc2)[C@H]1c1ccccc1	65.8	1.9	1.7%
31	CCOC(=O)N1CCN(C(=O)C(NC(=O)c2ccc(C(C)(C)C)cc2)C(C)C)CC1 (centres undefined)	-4.7	0.4	0.2%
32	COc1ccccc1CNS(=O)(=O)c1cc(-c2cc(C)no2)ccc1C(C)C	8.0	-0.8	-4.5%

item	gsp ag	gsp antag	Menin MLL FP FL
25	8.8%[15.4 µM]	-1.4%	/
26	-0.7%	15.9%	/
27	-77.5%[inhibitor]	/	/
28	-3.7%	-7.5%	3.4
29	-80.3%[inhibitor]	-6.8%	-1.9
30	/	/	/
31	-11.9%	1.1%	/
32	-24.0%	-21.6%	/

The listing continues:
item	smiles	TRPML1 inh	TRPML1 agonist	ClpP mod
33	O=C(NC(c1ccc(Cl)cc1)c1cc(Cl)c2cccnc2c1O)c1cccnc1 (centres undefined)	-14.5	6.6	0.8%
34	Cc1ccnc(NS(=O)(=O)c2ccc(NS(=O)(=O)Cc3ccccc3)cc2)n1	-3.7	0.8	0.7%
35	Cc1ccc(C)c(Cn2c(=O)n(-c3ccc(F)cc3)c(=O)c3sc4ccccc4c32)c1	-5.0	-0.6	?
36	C/C=C\C=C\C(=O)N1CC2(CC(c3cccc(NC(=O)CC(c4ccccc4)c4ccccc4)c3)=NO2)C[C@H]1C(N)=O (some centres undefined)	-13.0	-0.2	-2.9%
37	CC(C)OC(=O)/C(=C/c1ccco1)c1ccccc1	-0.7	2.4	/
38	Cc1ccc(SCC(=O)c2cc(C)c(O)c(C)c2)cc1	16.7	2.4	-0.8%
39	CCOc1ccc(-c2cc(C(=O)N3CCN(c4ccccn4)CC3)c3ccccc3n2)cc1	-1.8	0.4&-0.5&-0.7	3.7%&56.6%
40	Cn1c(=O)c2c(nc(OCc3cccnc3)n2Cc2c(F)cccc2Cl)n(C)c1=O	-4.4	-0.3	0.3%

item	gsp ag	gsp antag	Menin MLL FP FL
33	16.8%[15.4 µM]	-2.0%	4.7
34	2.4%[15.4 µM]	2.7%	2.3
35	/	/	/
36	?	-11.6%	2.6
37	-1.4%[15.4 µM]	-24.7%	?
38	4.3%	-24.9%	-2.6
39	8.8%	-3.5%	-0.8
40	0.9%	1.5%	0.4

The list goes on:
item	smiles	TRPML1 inh	TRPML1 agonist	ClpP mod
41	Cn1c(-c2csc(-c3ccccc3)n2)n[nH]c1=S	-8.2	-1.0	/
42	CN1CCN(c2ccccc2NC(=O)Cc2cn(C)c3ccccc23)CC1	30.9	-0.3	1.6%
43	COc1ccc(CN2CC(C(=O)N3CC(C)CC(C)C3)CC2=O)cc1 (centres undefined)	13.8	0.3	-1.2%
44	CCOc1ccc(S(=O)(=O)NCCC(=O)NCC(c2ccc(OC)cc2)N2CCOCC2)cc1 (centres undefined)	2.0	-0.2	-0.8%
45	CCN(CC)NC(=S)Nc1ccccc1	23.4	0.7	-0.5%
46	CC1CN(S(=O)(=O)c2ccc(Cl)c(S(=O)(=O)N3CC(C)OC(C)C3)c2)CC(C)O1 (centres undefined)	5.3	-0.2	0.3%
47	COC(=O)C1C2CC3c4[nH]c5cc(OC)ccc5c4CCN3CC2CC(OC2CCCCO2)C1OC (centres undefined)	-1.4	0.8	-29.6%
48	CSC(=CC(=O)c1ccc(F)cc1)SC	4.0	0.9	/

item	gsp ag	gsp antag	Menin MLL FP FL
41	?	-6.8%	3.9
42	-36.5%[inhibitor]	3.6%	-0.2
43	-18.4%	11.9%	0.6
44	-63.4%[inhibitor]	/	/
45	-13.7%	0.7%	8.6
46	?	7.1%	-1.3
47	-6.7%	/	/
48	6.1%[15.4 µM]	-1.8%	1.9

The list continues.
item	smiles	TRPML1 inh	TRPML1 agonist	ClpP mod
49	Cc1cccc(OCCSc2nc3ccccc3n2CC(=O)O)c1	-4.9	-1.0	2.0%
50	COc1ccc(CCNS(=O)(=O)c2ccc(N3CCCCS3(=O)=O)cc2)cc1OC	2.0	-0.7	-0.6%
51	O=C1/C(=C\c2ccco2)CCC/C1=C\c1ccco1	13.8	?	-8.5%
52	CCN(CC)S(=O)(=O)c1ccc(C(=O)OCC(=O)N2CCN(C(=O)c3ccco3)CC2)cc1	-8.0	3.2	-1.4%
53	CC[C@]1(C(=O)OC)[C@H]2C(=O)N(C)C(=O)[C@H]2[C@H]2CN=C(SCc3ccc(OC)cc3)N21	-0.2	-0.7	-5.7%
54	COc1ccc(Cl)cc1N(C)C(=O)CCNC(=O)Cn1cnc2ccccc2c1=O	1.9	0.4	1.3%
55	COc1ccc(-n2nnnc2/C=C\Nc2ccc(C)cc2)cc1	24.4	-0.8	1.8%
56	Cc1ccc(NC(=O)C(CC(C)C)N2Cc3ccccc3C2=O)cc1F (centres undefined)	11.1	0.6	-0.1%

item	gsp ag	gsp antag	Menin MLL FP FL
49	?	0.2%	0.4
50	/	/	/
51	4.3%	3.6%	?
52	11.1%	-10.0%	1.7
53	/	9.9%	/
54	4.7%	-4.9%	5.9
55	8.2%[15.4 µM]	-18.2%	2.7
56	/	/	/

Assay outcomes from PubChem BioAssay.
